Assay outcomes from PubChem.
HNF4A DNA FP = change in binding of human HNF4A to DNA, primary screen, biochemical, fluorescence polarization, FITC-DNA | 1 h | Hepatocyte nuclear factor 4-alpha (Homo sapiens), P41235 | AID 1224865, 2016 | hit rate 0.3% among 360,000 | activity change, % at 10 µM; in the data active = activity change above about 30%, passing the limit was not always enough;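 note: controls were the assay level and a saturating level of protein; the project sought stronger binding though the title names inhibitors; some compounds called inactive have numbers as strong as hits; positive values seem to mean higher polarization but the record does not say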
Target sequence (P41235 whole entry, looked up): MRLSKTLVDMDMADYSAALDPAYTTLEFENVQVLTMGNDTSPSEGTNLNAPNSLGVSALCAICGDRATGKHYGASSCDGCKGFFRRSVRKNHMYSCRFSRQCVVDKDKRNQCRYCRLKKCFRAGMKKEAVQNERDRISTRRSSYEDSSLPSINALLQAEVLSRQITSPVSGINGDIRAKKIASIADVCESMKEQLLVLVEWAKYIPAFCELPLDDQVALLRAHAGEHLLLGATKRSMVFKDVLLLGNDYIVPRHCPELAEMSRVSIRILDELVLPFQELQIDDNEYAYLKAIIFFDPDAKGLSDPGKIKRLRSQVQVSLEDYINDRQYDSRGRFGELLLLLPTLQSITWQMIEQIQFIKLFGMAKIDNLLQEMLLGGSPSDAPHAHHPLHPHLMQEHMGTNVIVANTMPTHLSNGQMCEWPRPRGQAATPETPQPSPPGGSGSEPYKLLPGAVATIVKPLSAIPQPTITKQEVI
rRNA inh HTS = reduced GFP signal of wild-type E. coli, primary screen, bacterial rRNA inhibitor project, GFP/RFP fluorescence, OD600, single point | hit rate 1.6% among 350,000 | GFP signal change (wild-type ribosome), % (test concentration not listed) | E. coli WT GFP vs humanized-ribosome RFP mutants, 24 h; active compounds read low; DMSO median 0, no signal -100;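 active = significant combined selectivity score with lowered wild-type GFP, culture density cut under 30%, mutant RFP and density less affected; inactive = any of these conditions unmet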; note: one replicate is shown; some compounds called inactive have numbers as strong as hits
Ecoli growth = E. coli growth inhibition, primary screen, OD600 | OD600 absorbance (test concentration not listed) | Escherichia coli growth, 23 h; active compounds read low | hit rate 0.21% among 330,000 | AID 1053175, 2014;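 active = OD600 absorbance below the run mean of sample wells minus 3.6 SD, in any replicate, cut at about 0.56 in these data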;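 note: stock transfer was 300 nL into about 60 µL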
FGF22 binding = binders of human FGF22 protein, primary screen, FGF22 synaptogenesis inhibitor project, biophysical, thermal shift, single point | Fibroblast growth factor 22 (Homo sapiens), Q9HCT0 | recombinant FGF22 thermal shift, SYPRO orange fluorescence; percent of sucrose octasulfate shift, DMSO zero | calls only at 9.99 µM | hit rate 1.5% among 340,000 | AID 651658, 2012;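 active = melting point raised past a set limit in the mean and every replicate; inconclusive = no clear call; three in four hits are not shown here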
Target sequence (Q9HCT0 whole entry, looked up): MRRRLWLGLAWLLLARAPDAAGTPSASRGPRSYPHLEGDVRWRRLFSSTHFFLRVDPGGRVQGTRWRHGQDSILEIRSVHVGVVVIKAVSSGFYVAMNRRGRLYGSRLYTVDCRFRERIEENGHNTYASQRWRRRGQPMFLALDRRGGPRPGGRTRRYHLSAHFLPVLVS
ALR H2O2 inh = inhibitors of human ALR sulfhydryl oxidase, primary screen, biochemical, H2O2 detection, HRP-luminol luminescence, single point. hit rate 3.8% among 290,000. inhibition, % (test concentration not listed). purified ALR, DTT oxidation. FAD-linked sulfhydryl oxidase ALR (Homo sapiens), P55789. AID 485317, 2010;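 active = mean and each replicate at 75% or more; inconclusive = only one of the two met; inactive = neither met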;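 note: stock transfer was 7.5 nL into about 7.5 µL; 0% = neutral wells and 100% = wells with inactivated enzyme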
Target sequence (P55789 whole entry, looked up): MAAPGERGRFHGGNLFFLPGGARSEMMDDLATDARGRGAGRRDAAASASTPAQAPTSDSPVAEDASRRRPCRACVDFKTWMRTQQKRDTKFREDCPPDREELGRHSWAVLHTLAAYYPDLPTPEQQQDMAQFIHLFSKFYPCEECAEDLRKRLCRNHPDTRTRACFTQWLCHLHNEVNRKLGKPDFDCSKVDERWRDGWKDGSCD
Vif TR-FRET = inhibitors of Vif binding to APOBEC3G peptide, primary screen, biochemical, TR-FRET, GST-Vif 1-94, biotin-A3G peptide, dose response retest (AID 1117319) | Virion infectivity factor (Human immunodeficiency virus type 1 group M subtype B (isolate … | TR-FRET GST-Vif / biotin-A3G peptide binding; higher % means a stronger effect; test concentration not given here; strong numbers were not always called active | one-dose inhibition, %; IC50 in µM for titrated hits | hit rate 0.57% among 260,000;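 active = above the screen mean plus three standard deviations and confirmed in dose response; inconclusive = results disagree or hit not tested in dose response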;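 note: Vif residues 1-94 fused to GST binding biotinylated APOBEC3G peptide 110-148; 0% = full assay without inhibitor and 100% = GST in place of GST-Vif; retest series ran down from 100 µM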
AF4-AF9 inh = inhibitors of AF4 peptide binding to AF9, primary screen, biochemical, AlphaScreen, biotin-AF4 peptide, FLAG-AF9, single point; AID 651704, 2012; hit rate 0.47% among 350,000; inhibition, % at 10 µM; Protein AF-9 (Homo sapiens), P42568;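 active = every replicate reaching a set inhibition limit, whatever the replicate mean, cut at about 25% in these data; inconclusive = mean inhibition reaches that limit but some replicates miss it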;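 note: 0% = plate neutral control median and 100% = total signal loss; the record names both 10 and 1 µM as test concentration; the first replicate is given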
rRNA inh HTS OD600 = recorded beside rRNA inh HTS, whose call it bears; OD600 change, %; measured here: OD600 growth;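 optical density of the mix in the first replicate; 0 = DMSO median and -100 = no signal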
rRNA inh HTS RFP = second read-out of rRNA inh HTS, no call of its own (marks repeat the call); RFP signal change, %; measured here: RFP humanized mutant strains;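 first replicate; 0 = DMSO median and -100 = no signal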
Numbers without * were called inactive; i = inactive; ? = inconclusive; . = not tested or not shown; & = joins results of further samples. Some of the compounds tested; rates above refer to the full screens.

mol	FGF22 binding	Vif TR-FRET	Ecoli growth	AF4-AF9 inh	ALR H2O2 inh	rRNA inh HTS	rRNA inh HTS RFP	HNF4A DNA FP	rRNA inh HTS OD600
O=C(OCC(O)COC(=O)c1cccnc1)c1cccnc1	i	-6%	0.68	-0.8	-2	7	0.9	0.2	10
COc1ccc(NC(=O)CSc2nnc(C)n2C2CCCCC2)cc1	i	.	0.67	-1.3	-2	9	1.2	1.1	9
Cc1csc(NC(=O)c2cncc(Br)c2)n1	i	.	0.68	-1.7	-11	25	8.4	5.1	34
Cc1ccccc1S(=O)(=O)Cc1ccc(C(=O)NCc2ccco2)o1	i	-4%	0.69	-1.9	-9	4	-1.0	0.5	7
O=C(Nc1nc(-c2ccco2)c(-c2ccco2)s1)C1CCC1	i	1.9µM*	0.67	14	-11	11	11	-0.6	16
C[C@H]1CN([C@@H](C)CO)S(=O)(=O)c2ccc(C3=CCCC3)cc2O[C@@H]1CN(C)C(=O)C1CCCCC1	i	.	.	4.9&4.1&5.1	.	-16&0	0.8&1.6	0.0	-38&3
Cc1cccc(-c2ccc([C@H]3[C@@H](CO)N4CCCCN(C(=O)c5ccc6c(c5)OCO6)C[C@@H]34)cc2)c1	i	.	.	1.3	.	4	17	.	-45
CCCn1c(SC/C(O)=C(\C#N)c2nc3ccccc3[nH]2)n[nH]c1=O	.	9%	0.69	-2.2	-11	13	2.8	6.8	23
CC(C)N(CC(O)COc1ccc(CC(N)=O)cc1)CC(O)COc1ccc(CC(N)=O)cc1 (centres undefined)	i	0%	0.67	-2.8	5	5	1.9	-1.1	6
Cc1cc(=O)[nH]c2nnc(-c3ccc(Cl)cc3)n12	i	-4%	0.68	0.5	.	10	0.0	1.3	5
CCCN(C)C[C@@H]1OCCCC[C@@H](C)Oc2ccc(NC(=O)CCCN(C)C)cc2C(=O)N([C@H](C)CO)C[C@H]1C	i	.	.	4.3	.	4	-2.7	.	1
Cc1onc(-c2ccccc2Cl)c1C(=O)NC(=S)Nc1ccccc1C(N)=O	.	-11%	0.66	.	95*	.	.	-4.0	.
COc1ccc(C2NC(=O)c3ccccc3O2)cc1OC (centres undefined)	.	.	0.66	.	-10	.	.	-1.8	.
O=C(CN1C(=O)NC2(CCCc3ccccc32)C1=O)Nc1cccc(S(=O)(=O)N2CCCCC2)c1 (centres undefined)	i	-1%	.	-3.7	0	-12	-2.8	-0.9	-11
COCC#Cc1ccc2c(c1)O[C@@H](CN(C)C(=O)C1CCCCC1)[C@@H](C)CN([C@@H](C)CO)S2(=O)=O	i	.	.	-1.8	.	-1	1.5	.	-1
CCN(c1cccc(C)c1)S(=O)(=O)c1cn(CC(=O)OC)c2ccc([N+](=O)[O-])cc12	i	.	0.7	2.3	-4	-8	5.9	-3.7	-1
O=C(COc1ccccc1)Nc1ccc(CSc2ccccc2)cc1	.	-7%	0.76	.	-8	.	.	-1.5	.
CC1=C(C(=O)OC2CCCCC2)C(c2ccccc2)NC(=O)N1 (centres undefined)	i	.	0.66	-8.5	97*	-5	0.0	-1.5	-4
CCOc1ccc(OCCCC(=O)O)cc1	.	-4%	0.68	.	-13	.	.	-0.8	.
COc1ccc(NC(=O)C2=NNC(=O)CC2)cc1S(=O)(=O)N1CCCCC1	i	9%	0.7	-6.2	7	7	-0.7	3.4	4
COc1ccc(C(=O)Nc2ccc(O)c3ccccc23)cc1	i	.	0.64	-3.3	30	-3	0.1	4.4	0
COCCn1c(SCC(=O)Nc2sccc2C(N)=O)nnc1-c1ccncc1	i	0%	0.72	-2.5	.	6	1.4	2.6	7
O=C(COc1ccc(S(=O)(=O)N2CCCC2)cc1Cl)Nc1ccc2c(c1)OCO2	.	0%	0.7	.	-1	.	.	0.7	.
Cc1cccc(C)c1NC(=O)c1ccc2sc([C@H]3C[C@H](O)[C@@H](CO)O3)nc2c1	i	.	.	-2.3	.	0	-2.3	-1.8	-8
O=C(CSc1ccc(-c2ccccn2)nn1)NCc1ccccc1	i	0%	0.7	-1.3	-4	3	1.1	-0.1	1
COc1ccc([N+](=O)[O-])cc1NS(=O)(=O)c1ccc(C)cc1	i	0%	0.65	-16	-6	-4	0.8	3.5	-8
O=[N+]([O-])c1cccc(C2(O)COc3ccccc3O2)c1 (centres undefined)	i	0%	0.62	3.3	51	3	-8.1	3.8	-2
C=C(C)CSc1nnc(CCNC(=O)OC(C)(C)C)o1	i	6%	0.7	-0.1	36	3	-2.7	5.9	6
O=C(Nc1ccc(S(=O)(=O)Nc2ccnn2-c2ccccc2)cc1)C(F)(F)F	i	7%	0.64	4.4	-4	10	-1.7	2.4	5
COCCNC(=O)c1cc(-c2ccncc2)nc2ccc(S(=O)(=O)N3CCOCC3)cc12	i	-14%	0.7	0.8	-9	14	-6.5	2.5	-1
CC(=O)[C@@H]1[C@@H]2C(=O)N(Cc3ccccc3)C(=O)[C@@H]2C2c3ccccc3C=CN21 (some centres undefined)	i	-26%&4%	0.72	-12	1	-1	28	-13	9
O=C(Cc1cccs1)Nc1nnc(SCc2ccc(C(F)(F)F)cc2)s1	i	.	0.69	-2.6	-10	.	.	6.4	.
CSCCC(C(=O)Nc1c(C)cccc1C)N(C)CCc1ccccc1 (centres undefined)	i	.	.	-13	.	-31	-3.3	0.7	-68
CCOC(=O)CN1NC2(CCCC(C)C2)NC1=S (centres undefined)	.	4%	0.69	.	-1	.	.	-5.0	.
C[C@@H]1CCCCO[C@H](CN(C)C(=O)Nc2ccc(F)cc2)[C@H](C)CN([C@H](C)CO)C(=O)c2cc(NC(=O)c3ccncc3)ccc2O1	i	.	.	-1.5	.	-3	2.6	.	0
CN1C(=O)c2cc(NC(=O)Cc3cccs3)ccc2OC[C@H]2O[C@H](CC(=O)O)CC[C@H]21	i	.	.	-2.3	.	2	-0.3	.	3
Cc1ccc(NC(=O)c2ncn(CCCNCc3ccccn3)n2)cc1C	i	.	.	0.0	.	11	-1.2	1.1	7
N#Cc1c(-c2ccccc2F)cc(-c2cccnc2)nc1N	i	-14%	0.73	-4.5	8	.	.	-5.2	.
O=C(O)c1ccccc1-n1c(-c2ccccc2)cc2c1CCCC2=O	.	29%	0.67	0.4	-14	16	8.1	-6.4	23
CC1=CC(C)(C)NC(=S)N1C(C)c1ccccc1 (centres undefined)	i	-2%	0.68	-0.4	-4	9	3.6	-1.6	0
CCN1C(=O)[C@H]2[C@@H](c3ccc(C(F)(F)F)cc3)N[C@]3(CCCN(Cc4ccc(OC)cc4)C3=O)[C@H]2C1=O	i	7%	.	-3.0	.	.	.	-0.1	.
CCOC(=O)/C(C#N)=C\c1ccco1	.	14%	0.69	.	-2	.	.	-0.5	.
Cc1nc2scc(-c3cccs3)c2c(=O)n1CC(=O)O	.	23%	0.73	.	.	.	.	7.7	.
COc1cccc(C2CC(c3ccccc3Cl)n3ncnc3N2)c1 (centres undefined)	.	9%	0.69	.	-30	.	.	1.6	.
CCS(=O)(=O)N1CCN(C(=O)C(c2ccccc2)c2ccccc2)CC1	.	6%	0.7	.	-2	.	.	-0.2	.
COc1ccc(CN(C)C[C@@H]2Oc3ccc(NC(=O)NC(C)C)cc3CC(=O)N([C@@H](C)CO)C[C@H]2C)cc1	i	.	.	-2.4	.	0	-3.3	.	-4
CCn1c(SCC(=O)Nc2ncc(C(F)(F)F)cc2Cl)nnc1-c1ccccc1	i	.	0.67	-2.1	3	-6	-1.2	2.7	-8
CC(=O)OCC(=O)[C@@]1(O)CC[C@H]2[C@@H]3CCC4=CC(=O)CC[C@]4(C)[C@H]3C(=O)C[C@@]21C	i	1%	.	-3.9	-18	.	.	-4.0	.
O=C(Nc1ccc(Cl)cc1)C1=Cc2cc(Cl)ccc2OC1	.	-1%	0.7	.	-5	.	.	0.3	.
Cc1nn(C(C)C(=O)Nc2ccccc2Cl)c(=O)c2nn(-c3ccccc3)c(C)c12 (centres undefined)	i	.	0.64	-0.5	-3	-20	-3.4	3.7	-17
CCCn1nc(C(=O)Nc2nnc(C3CC3)s2)c2ccccc2c1=O	i	-6%	0.69	0.3	3	-11	-7.9	2.9	-12
CCC(=O)Nc1cc(OC)c(NC(=O)c2ccccc2)cc1OC	.	8%	0.68	.	-49	.	.	3.4	.
CC(C)CC#Cc1cnc2c(c1)C(=O)N([C@@H](C)CO)C[C@@H](C)[C@@H](CN(C)Cc1ccccc1C(=O)O)O2	i	.	.	-8.9	.	7	-2.9	.	10
C=CCNc1nnc(SC2CC(=O)N(c3ccc(OCCC)cc3)C2=O)s1 (centres undefined)	.	?	.	.	7	.	.	2.4	.
Cc1noc(C)c1S(=O)(=O)N(C)C[C@H]1Oc2ccc(NS(=O)(=O)c3ccccc3)cc2CC(=O)N([C@H](C)CO)C[C@@H]1C	i	.	.	1.0	.	4	1.8	.	5
Cn1c(SCC(=O)N2c3ccccc3Sc3ccccc32)nc2ccccc21	i	.	0.75	9.5	.	-5	57	-0.9	4
COCC(C)NC(=O)c1nn(Cc2ccccc2)c(=O)c2ccccc12 (centres undefined)	i	.	0.72	1.3	-1	-13*	3.8*	2.5	7.4*
O=C(C[C@H]1CC[C@H](NS(=O)(=O)c2ccc(F)cc2)[C@H](CO)O1)NC1CCCCC1	i	.	.	-1.5	.	-4	0.6	.	-3
Oc1ccccc1C1=NN(c2ccccc2)C(c2ccc(F)cc2)C1 (centres undefined)	i	-6%	0.71	-1.5	-3	7	0.9	-1.5	8
